eIF4H FP inh: inhibitors of RNA binding by human eIF4H; Q15056; eIF4H fluorescence polarization binding assay; inhibition, % at 35 µM; hit rate 0.94% among 290,000;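 active = 50% or more with normal probe brightness, or confirmed in later tests; inconclusive = above 50% with abnormal brightness, or retests that disagree; inactive = below 50% or failed in later tests; about a fifth of its hits are not listed in these tables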;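 note: calls also rest on retests at 20 µM and on dose response follow-up; 0% = protein and probe with vehicle and 100% = probe without protein; strong numbers were not always called active; many hits fall short of the cut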
PABP FP inh: PABP-poly(A) binding inhibition. P11940. PABP-poly(A) RNA binding, fluorescence polarization. inhibition, % at 35 µM. hit rate 1% among 290,000. AID 2014;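 active = 50% or more with normal probe brightness, or confirmed in later tests; inconclusive = above 50% with abnormal brightness, or retests that disagree; inactive = below 50% or failed in later tests; about a fifth of its hits are not listed in these tables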;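 note: calls also rest on retests at 20 µM and on dose response follow-up; controls were probe without protein and protein plus probe with vehicle; some compounds called inactive have numbers as strong as hits; many hits fall short of the cut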
MT1-MMP act inh: inhibitors of human MT1-MMP activation; P50281; HT1080 RFP-PRO-GFP cells, GFP/RFP ratio fluorescence, overnight; percent of plate control window, DMSO zero; GFP/RFP ratio change, % at 20 µM; hit rate 0.061% among 360,000; AID 651647;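 active = GFP/RFP ratio change of at least 30% with cell ATP level not reduced by more than half and red fluorescence within 50% of control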; note: strong numbers were not always called active
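Test system: HT1080 cells expressing an RFP-PRO-GFP fluorescent reporter construct / Compound dosing: single-point 20 µM compound, 1% DMSO / Schedule: cells overnight before dosing, compound overnight, 37 °C, 5% CO2 / Evaluation: GFP/RFP fluorescence ratio / Control set: DMSO and RFP-L50D-GFP cell wells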
Rce1 inhib: inhibitors of yeast Ras-converting enzyme; Q03530; yeast membranes, quenched prenylated peptide cleavage fluorescence; calls only; hit rate 0.27% among 290,000; AID 2563;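 active = fall in fluorescence gain of 50% or more versus controls, with final raw signal at or below 3038400; inconclusive = same 50% fall but final raw signal above 3038400; inactive = fall in fluorescence gain under 50%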;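 note: plate controls were neutral control wells for no effect and wells lacking membranes for full effect; tested at 10 µM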
Target sequence (Q03530 whole entry, looked up): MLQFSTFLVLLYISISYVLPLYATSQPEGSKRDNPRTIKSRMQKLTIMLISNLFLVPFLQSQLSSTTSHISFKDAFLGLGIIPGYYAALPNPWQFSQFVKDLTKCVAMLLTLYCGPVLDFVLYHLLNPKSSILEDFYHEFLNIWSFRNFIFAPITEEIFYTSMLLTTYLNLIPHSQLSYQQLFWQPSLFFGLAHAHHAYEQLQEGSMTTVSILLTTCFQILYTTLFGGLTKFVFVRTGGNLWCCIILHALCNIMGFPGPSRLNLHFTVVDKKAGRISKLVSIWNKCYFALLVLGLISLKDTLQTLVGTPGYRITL
HIV Env fusion: inhibitors of HIV Env-mediated cell fusion; HeLa-JRFL Env/CEM21 cell fusion, luciferase; inhibition, % at 12.3 µM; hit rate 1.1% among 360,000;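 active = mean replicate inhibition score of at least 50 and every replicate individually at or above 50; inconclusive = only one of the two criteria met; inactive = mean below 50 and not all replicates reaching 50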;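 note: 0% = plate neutral controls and 100% = maraviroc near 300 nM; one replicate is shown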
CSC inhib: cancer stem cell inhibition; cancer stem cell-like cells viability, luminescence; inhibition, % at 7.5 µM; hit rate 1.1% among 300,000;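 active = mean at 75% or more and at least half the replicates too; inconclusive = mean and replicates disagree; tested in HMLE shEcad cells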;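 note: 0% = median of negative and 100% = median of positive control wells; the first replicate is given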
Yeast UUG start: modulators of start codon recognition fidelity in yeast; S. cerevisiae UUG-firefly luciferase reporter, luminescence/redox ratio; activity score, % at 18.7 µM; hit rate 0.13% among 350,000;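 active = replicate mean at a twofold rise or more, about +100% in these data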;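 note: firefly luciferase made from a UUG start codon reports start codon fidelity; reporter light over untreated wells divided by growth signal over untreated wells; some hits fall short of that in this replicate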
MT1-MMP act inh RFP: further read-out of MT1-MMP act inh, marked with its call; RFP signal change, %; measured here: RFP expression control read;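 0 = vehicle wells; hits needed this value within 50% of zero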
Starred values were filed as active, the others as inactive; i = inactive; ? = inconclusive; . = no result given; + = active, no number. These rows are one share of the data. The share of hits here may be higher or lower than overall.

no.	mol	eIF4H FP inh	PABP FP inh	MT1-MMP act inh	MT1-MMP act inh RFP
1	Cc1ccc(C(C)C)c(OCC(=O)Nc2cccc(S(=O)(=O)NC3=NCCCCC3)c2)c1	0	-6	3	-8
2	COCCNC(=O)C1(C)CCCN(C(=O)c2ccc(C#N)cc2)C1 (configuration not stated)	.	.	-2	1
3	COc1ccc(C)cc1Nc1n[n+](-c2ccccc2)c(-c2c(OC)ccc3ccccc23)s1	.	.	10	-26
4	CC(C)C(O)(c1ccccc1)C(CN1CCOCC1)c1ccccc1 (configuration not stated)	-5	-1	-5	-2
5	C/C(=N/NC(=O)CNC(=O)C1COc2ccccc2O1)c1ccc2c(c1)OCCO2 (configuration not stated)	2	24	0	2
6	CCc1c(C)nc2ncnn2c1N1CCCC(C(=O)NCCc2ccc(OC)cc2)C1 (configuration not stated)	3	7	8	-10
7	COC(=O)COc1ccc(-c2nccc(-c3ccccn3)n2)cc1	-8	-8	4	6
8	O=C(CSc1nccc(=O)[nH]1)c1cc2ccccc2o1	5	-2	-10	-2
9	COc1ccc(CC2(C)OC(c3ccc(C)cc3)=NN2C(C)=O)cc1 (configuration not stated)	5	-12	-4	-7
10	CSc1ccccc1OCc1cc(C(=O)N[C@H]2CCCCNC2=O)no1	-8	0	0	-5
11	CCOC(=O)c1[nH]c2c(c1C)C(=O)CC(c1ccc(N(C)C)cc1)C2 (configuration not stated)	-3	-2	5	-4
12	Cn1c(=O)c(C(=O)COC(=O)c2cc(C3CC3)nc3ccccc23)c(N)n(Cc2ccccc2)c1=O	-6	-2	.	.

no.	Rce1 inhib	HIV Env fusion	CSC inhib	Yeast UUG start
1	i	4	3	3
2	.	-28	.	-25
3	.	46	87*	-2
4	i	27	10	-10
5	i	1	-1	.
6	i	-36	-10	-9
7	i	?	-13	-19
8	i	-10	3	.
9	i	27	-9	.
10	i	-42	-11	13
11	i	1	19	1
12	.	-11	-3	.

(continued)
no.	mol	eIF4H FP inh	PABP FP inh	MT1-MMP act inh	MT1-MMP act inh RFP
13	CCOc1ccc(Nc2nc3cc(S(=O)(=O)N(CC)CC)ccc3o2)cc1	-3	-1	-2	-8
14	Cc1nonc1C(=O)N/N=C/c1ccccc1	-7	1	0	2
15	CCN(CC)C(=O)C1=C(C)N(Cc2ccc(OC)cc2)C(=O)C(CC(=O)NCCCCc2ccccc2)C1 (configuration not stated)	.	.	3	1
16	C/C=C\C=C\C(=O)N1CC2(CC(c3cccc(NC(=O)/C(C)=C\C)c3)=NO2)C[C@H]1C(N)=O (some centres not stated)	-1	20	-5	-1
17	CC(=O)c1cccc(-c2ccnc3c2CC(C(=O)Nc2ccc(Cl)c(C(F)(F)F)c2)O3)c1 (configuration not stated)	.	.	2	-10
18	CSc1nc(-c2ccccc2)nn1C(=O)c1ccccc1	8	2	-2	-2
19	C=CCNC(=S)N/N=C/c1ccc(OCc2ccccc2)cc1	.	.	-1	6
20	O=C(CSc1ccccn1)N1CCN(c2ccc(Cl)cc2)CC1	1	-2	-1	-4
21	O=C(CC1Oc2ccccc2NC1=O)NC1CCCC1 (configuration not stated)	-3	-2	-2	4
22	CCn1c(CNC(=O)c2cc(OC)c(OC)c(OC)c2)cc2ccccc21	-10	6	-3	-23
23	O=C(NCC1CCCO1)c1cc(S(=O)(=O)N2CCCCC2)ccc1Cl (configuration not stated)	.	.	2	2
24	Cc1cc(C)c(S(=O)(=O)c2ccccc2C)c(OCC(C)(C)C)n1	0	2	2	-11

no.	Rce1 inhib	HIV Env fusion	CSC inhib	Yeast UUG start
13	i	.	36	-11
14	.	11	9	-19
15	.	-45	.	2
16	i	-61	-4	-1
17	.	-7	.	-6
18	i	-452	7	-18
19	i	2	4	-5
20	i	?	-12	-12
21	i	0	-11	-10
22	i	1	5	8
23	.	.	4	-6
24	i	.	-15	0

(more compounds)
no.	mol	eIF4H FP inh	PABP FP inh	MT1-MMP act inh	MT1-MMP act inh RFP
25	CN(C)c1ccc(-c2nc3n(n2)C(c2cccnc2)C2=C(CC(C)(C)CC2=O)N3)cc1 (configuration not stated)	-11	-2	1	4
26	Cc1c(C)c2c(C)[nH]nc2oc1=O	-2	-1	10	6
27	O=C(NC(=O)N1CCN(c2ccccc2)CC1)c1ccc(Cl)cc1	-6	-2	2	2
28	CC(=O)c1ccc(NC(=O)CN2CCCC2)cc1	-2	7	-2	-2
29	COc1ccc(Cl)cc1NCC(=O)Nc1ccc(OC)c(S(=O)(=O)N2CCCCC2)c1	.	.	0	-7
30	O=C(c1ccccc1)N1CCN(c2cc(-c3ccccc3)nc3cc(-c4cccc(Cl)c4)nn23)CC1	.	.	-5	-25
31	C=CC[C@H](CC(=O)N(CCO)Cc1ccccc1)C(=O)N[C@H](C)COC(=O)[C@@H](CC=C)CC(=O)OC(C)(C)C	.	.	2	-4
32	CC1(C(=O)NS(=O)(=O)C2CC2)CCCN(C(=O)c2ccc(F)c(Cl)c2)C1 (configuration not stated)	.	.	-1	9
33	O=C(O/N=C(\c1ccccc1)c1ccncc1)c1ccccc1Cl	0	13	0	3
34	CC(NC(=O)C1CCCN1S(=O)(=O)c1cccc2nsnc12)c1ccccc1 (configuration not stated)	-16	-2	0	2
35	COC(=O)c1c(NC(=O)CC2NCCNC2=O)sc2c1CCCC2 (configuration not stated)	0	-8	-1	-7
36	Cc1ccc(S(=O)(=O)NCC(=O)OCC(=O)Nc2cccc(S(=O)(=O)NC3=NCCCCC3)c2)cc1	3	-7	3	3

no.	Rce1 inhib	HIV Env fusion	CSC inhib	Yeast UUG start
25	i	-34	11	-21
26	i	.	-5	-9
27	i	-35	60	-1
28	i	2	-7	-17
29	.	17	-5	41
30	.	57*	.	-8
31	.	.	-17	28
32	.	1	.	-38
33	i	14	9	-21
34	i	.	11	5
35	i	14	-8	-12
36	i	11	-1	7

Next part.
no.	mol	eIF4H FP inh	PABP FP inh	MT1-MMP act inh	MT1-MMP act inh RFP
37	Nc1nnnn1/N=C/c1ccc(F)cc1	3	7	-1	1
38	Cc1cccc(-c2nc3ccccc3c(=O)n2NC(=O)c2ccc([N+](=O)[O-])c(C)c2)c1	-14	-20	-1	-8
39	Cc1onc(-c2c(F)cccc2Cl)c1C(=O)OCC(=O)NCc1ccco1	14	13	1	3
40	O=C(OCc1cn([C@@H]2C[C@H](c3ccc(Cl)cc3)N(CC3CCCCC3)C[C@H]2O)nn1)c1ccccc1	.	.	-2	-1
41	O=c1[nH]cc(CN2CCOCC2)c(=O)[nH]1	.	.	3	8
42	Cc1ccc(S(=O)(=O)N(C)c2c(C)ccc(S(=O)(=O)N3CCN(C)CC3)c2C)cc1	-8	14	-2	-1
43	CSc1ccccc1OCc1cc(C(=O)N2CCc3[nH]cnc3C2c2ccccn2)no1 (configuration not stated)	-2	4	6	5
44	COc1cc(/C=C/C(=O)O)cc(S(=O)(=O)Nc2ccccc2Oc2ccccc2)c1OC	-2	3	7	3
45	Cc1ccc(-c2nc3cccnc3s2)cc1NS(=O)(=O)c1ccc2c(c1)OCCO2	9	14	-5	-2
46	O=C(OCC(=O)c1ccc[nH]1)c1ccc(Cl)nc1	.	.	1	6
47	COCCNC(=O)c1ccc(N2CC3CC(C2)c2cccc(=O)n2C3)c(NC(=O)c2c(F)cccc2F)c1 (configuration not stated)	-2	5	-1	2
48	COc1ccc(C)c2sc(NC(=O)C3=COCCO3)nc12	-10	0	6	-2

no.	Rce1 inhib	HIV Env fusion	CSC inhib	Yeast UUG start
37	i	-12	.	-8
38	.	-17	-5	-18
39	i	.	-7	3
40	.	3	.	-5
41	.	?	.	-9
42	i	-5	12	-5
43	i	-331	8	-35
44	i	7	-1	.
45	i	?	77*	-5
46	i	-23	-1	-5
47	i	-12	3	-6
48	+	.	-10	-3

Structures above containing a halogen, in the order listed:
no.	mol	eIF4H FP inh	PABP FP inh	MT1-MMP act inh	MT1-MMP act inh RFP
17	CC(=O)c1cccc(-c2ccnc3c2CC(C(=O)Nc2ccc(Cl)c(C(F)(F)F)c2)O3)c1 (configuration not stated)	.	.	2	-10
20	O=C(CSc1ccccn1)N1CCN(c2ccc(Cl)cc2)CC1	1	-2	-1	-4
23	O=C(NCC1CCCO1)c1cc(S(=O)(=O)N2CCCCC2)ccc1Cl (configuration not stated)	.	.	2	2
27	O=C(NC(=O)N1CCN(c2ccccc2)CC1)c1ccc(Cl)cc1	-6	-2	2	2
29	COc1ccc(Cl)cc1NCC(=O)Nc1ccc(OC)c(S(=O)(=O)N2CCCCC2)c1	.	.	0	-7
30	O=C(c1ccccc1)N1CCN(c2cc(-c3ccccc3)nc3cc(-c4cccc(Cl)c4)nn23)CC1	.	.	-5	-25
32	CC1(C(=O)NS(=O)(=O)C2CC2)CCCN(C(=O)c2ccc(F)c(Cl)c2)C1 (configuration not stated)	.	.	-1	9
33	O=C(O/N=C(\c1ccccc1)c1ccncc1)c1ccccc1Cl	0	13	0	3
37	Nc1nnnn1/N=C/c1ccc(F)cc1	3	7	-1	1
39	Cc1onc(-c2c(F)cccc2Cl)c1C(=O)OCC(=O)NCc1ccco1	14	13	1	3
40	O=C(OCc1cn([C@@H]2C[C@H](c3ccc(Cl)cc3)N(CC3CCCCC3)C[C@H]2O)nn1)c1ccccc1	.	.	-2	-1
46	O=C(OCC(=O)c1ccc[nH]1)c1ccc(Cl)nc1	.	.	1	6
47	COCCNC(=O)c1ccc(N2CC3CC(C2)c2cccc(=O)n2C3)c(NC(=O)c2c(F)cccc2F)c1 (configuration not stated)	-2	5	-1	2

no.	Rce1 inhib	HIV Env fusion	CSC inhib	Yeast UUG start
17	.	-7	.	-6
20	i	?	-12	-12
23	.	.	4	-6
27	i	-35	60	-1
29	.	17	-5	41
30	.	57*	.	-8
32	.	1	.	-38
33	i	14	9	-21
37	i	-12	.	-8
39	i	.	-7	3
40	.	3	.	-5
46	i	-23	-1	-5
47	i	-12	3	-6

Next section:
no.	mol	eIF4H FP inh	PABP FP inh	MT1-MMP act inh	MT1-MMP act inh RFP
49	COc1ccc(N2CCN(C(=O)COC(=O)CCc3ccccc3)CC2)cc1	.	.	0	4
50	CC(=O)NC(CC(=O)Nc1nc(C)cs1)c1ccccc1 (configuration not stated)	-3	16	2	6
51	COc1ccc(NC(=O)CCC(=O)Nc2nnc(C3CCCCC3)s2)cc1	-7	-7	5	8
52	CC(C)[C@H](NC(=O)c1ccco1)C(=O)OCC(=O)N1CCc2ccccc21	0	7	3	3
53	CCNC(=O)COc1ccc(C=O)cc1OC	-12	-8	-2	7

no.	Rce1 inhib	HIV Env fusion	CSC inhib	Yeast UUG start
49	.	-423	-8	-7
50	i	1	-16	.
51	i	1	-4	.
52	i	-106	-18	-30
53	i	-34	-8	-15
